PKM2 activator: PKM2 (human) enzyme activation. actives 0.34% (n = 260,000). AID 1631. Potency, µM (series often up to 57.5 µM), for the others: at the highest dose activation, most hits filed as activators. purified PKM2, Kinase-Glo ATP luminescence, activation; response scale: 0% is enzyme alone, no compound. P14618; also: potency is read from the fitted curve at half-maximal effect; % is scaled to controls: 0 for no effect and ±100 for the full control effect; nearly all actives have a fitted effect of over 55% in size
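ATP formation by purified human PK-M2, quantified via coupled luciferase luminescence after 1 h at room temperature with 0.1 mM ADP and 0.5 mM PEP final.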
NPC1 promoter act: NPC1 promoter activation; AID 485313; Huh7 NPC1 promoter luciferase reporter, 24 h; Potency, µM (highest dose often 9.22 µM), inactives show at the top dose activation, actives largely listed as activators; actives 2.4% (n = 320,000);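 also: potency is read from the fitted curve at half-maximal effect; % of control where 0% means no effect; nearly all actives have a fitted effect of over 60% in size; reporter is driven by a mutant NPC1 promoter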
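In 1536-well qHTS, Huh7 cells harboring an NPC1 promoter–luciferase construct received compound for 24 h; activation was quantified by luminescence following luciferase reagent addition.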
MBNL1 CUG block: inhibitors of human MBNL1 binding to CUG repeat RNA; TR-FRET MBNL1-His/biotin-(CUG)12 binding, 665/545 ratio; Potency, µM (series often up to 57.5 µM), for inactives: at the highest dose activity change, negative = inhibition, actives largely listed as inhibitors; actives 0.036% (n = 280,000); AID 2675; active = well fitted inhibition curve with a large enough effect in the signal ratio, with a control signal flat, not every such curve was filed as active; inconclusive = small, poorly fitted or top-dose-only effect, or effect the other way, or a change in a side signal; inactive = no such curve, though single readings can be large or run the other way; the % refers to the signal ratio; also: potency is read from the fitted curve at half-maximal effect; % is scaled to controls: 0 for no effect and ±100 for the full control effect
Target sequence (Q9NR56 whole entry, looked up): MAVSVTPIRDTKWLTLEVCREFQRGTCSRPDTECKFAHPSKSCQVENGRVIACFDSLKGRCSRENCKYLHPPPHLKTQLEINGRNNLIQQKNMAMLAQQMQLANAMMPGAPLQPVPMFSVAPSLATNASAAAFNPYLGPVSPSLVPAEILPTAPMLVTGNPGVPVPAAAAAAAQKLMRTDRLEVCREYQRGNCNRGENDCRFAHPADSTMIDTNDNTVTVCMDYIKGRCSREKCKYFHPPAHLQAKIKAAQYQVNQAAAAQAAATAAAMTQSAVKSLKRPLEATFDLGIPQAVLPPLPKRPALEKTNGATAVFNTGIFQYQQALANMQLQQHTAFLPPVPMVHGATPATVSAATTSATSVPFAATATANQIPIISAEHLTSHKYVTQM
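Compounds (final 92 nM to 58 uM) are added to His-tagged MBNL1 and biotin-(CUG)12, then terbium anti-His antibody and streptavidin-XL665 (5 nM final). After 60 min at room temperature, the 665/545 nm ratio is read.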
Menin-MLL TR inh: menin-MLL binding inhibition, Texas Red mutant peptide | actives 0.23% (n = 270,000) | AID 1768 | Potency, µM (titrated, usually from 61.6 µM), for the others: top-dose FP activity change, negative = inhibition, usual class: inhibitors | Menin + Texas Red MLL mutant peptide, fluorescence polarization; active = well fitted inhibition curve with a large enough effect in the polarisation, with a control signal flat, not every such curve was filed as active; inconclusive = small, poorly fitted or top-dose-only effect, or effect the other way, or a change in a side signal; inactive = no such curve, though single readings can be large or run the other way; the % refers to the polarisation; also: potency is read from the fitted curve at half-maximal effect; % of control where 0% means no effect; many of its hits are not listed in these tables
Target sequence (O00255 whole entry, looked up): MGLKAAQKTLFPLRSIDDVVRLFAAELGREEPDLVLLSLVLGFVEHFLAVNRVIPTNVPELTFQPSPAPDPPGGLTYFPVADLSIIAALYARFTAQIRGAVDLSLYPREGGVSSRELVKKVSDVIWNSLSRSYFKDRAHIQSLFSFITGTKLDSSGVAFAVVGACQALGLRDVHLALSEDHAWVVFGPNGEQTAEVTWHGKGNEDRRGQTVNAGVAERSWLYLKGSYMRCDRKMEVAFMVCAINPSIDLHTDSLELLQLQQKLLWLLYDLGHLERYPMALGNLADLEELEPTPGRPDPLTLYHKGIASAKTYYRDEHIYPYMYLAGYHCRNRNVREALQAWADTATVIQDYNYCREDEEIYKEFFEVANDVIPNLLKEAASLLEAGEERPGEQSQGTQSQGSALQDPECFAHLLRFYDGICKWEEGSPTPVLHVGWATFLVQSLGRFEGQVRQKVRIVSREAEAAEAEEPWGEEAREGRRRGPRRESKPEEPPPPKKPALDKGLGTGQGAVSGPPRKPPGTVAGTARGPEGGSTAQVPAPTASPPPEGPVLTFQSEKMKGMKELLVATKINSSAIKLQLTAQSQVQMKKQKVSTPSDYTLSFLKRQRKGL
KCNH2 3.1 block: KCNH2 3.1 (human) potassium channel inhibition | U2OS KCNH2 3.1, thallium flux FluxOr; hits give low values | actives 0.95% (n = 340,000) | activity change, % (tested at about 1.8 µM);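 active = maximum activity change below -70%; inconclusive = maximum activity change from -70% to -50%; inactive = maximum activity change above -50%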;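 also: thallium influx rate constant from kinetic fluorescence after stimulation buffer; % is scaled to controls: 0 for no effect and ±100 for the full control effect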
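Channel expression came from 3.1 mutant virus (1.77 x 10^8 /mL) applied to suspended U2OS cells for 4 h. Flux was tracked with FluxOr dye plus Red40 quencher, and kinetic rate constants normalized to controls.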
Mito fusion yeast: blocks mitochondrial division or promotes mitochondrial fusion; S. cerevisiae fusion-defective mutant growth rescue, CellTiterGlo 48 h; Potency, µM (doses to about 46.1 µM), inactives show at the top dose growth rescue (activation), most hits filed as activators; actives 0.23% (n = 320,000); AID 485298;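 also: potency is read from the fitted curve at half-maximal effect; % of control where 0% means no effect; nearly all actives have a fitted effect of over 45% in size; temperature-sensitive fusion mutants such as fzo1-1 at 37 °C on non-fermentable ethanol glycerol medium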
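Growth-rescue viability read-out: after 48 h at the non-permissive 37C in glycerol/ethanol YPEG, yeast mitochondrial fusion mutants are measured by CellTiterGlo luminescence; compounds (23 nl pinned per well) restoring growth score as division inhibitors or fusion activators.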
Rab9 prom act: activators of Rab9 promoter; Huh7 Rab9 promoter-luciferase reporter, luminescence, 24 h; Potency, µM (titrated, usually from 9.22 µM), for the others: top-dose activation, negative = inhibition, most hits filed as activators; actives 2.8% (n = 320,000); also: potency is read from the fitted curve at half-maximal effect; % of control where 0% means no effect; nearly all actives have a fitted effect of over 60% in size
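Quantitative HTS format; Huh7 Rab9-luciferase reporter cells (1500/well) receive compound 2 h post-plating, incubate 24 h at 37 °C, then get luciferase reagent for 10 min before luminescence reading.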
ELG1 repair inh: blocks ELG1-dependent DNA repair in HEK293T cells | actives 2.3% (n = 330,000) | Potency, µM (series often up to 46.1 µM), for inactives: at the top dose activity change, negative = inhibition, most hits filed as inhibitors | HEK293T ELG1-luciferase reporter, luminescence, 16 h; DNA damage induced by 5-fluorouridine; also: potency is read from the fitted curve at half-maximal effect; % is scaled to controls: 0 for no effect and ±100 for the full control effect; nearly all actives have a fitted effect of over 55% in size
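DMSO vehicle served as the neutral condition. Each well held 2,000 cells given 5-fluorouridine plus compound; after 16 hr at 37 °C/5% CO2, ONE-Glo was added and luciferase measured 30 min later.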
FLuc modulator: firefly luciferase modulation, counter-screen for miR-21 project; Potency, µM (top dose mostly 57.5 µM), for the others: top-dose activity change, negative = inhibition, hits mostly inhibitors; purified FLuc, Km substrates, luminescence inhibition; actives 6.9% (n = 360,000); P08659;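 also: potency is read from the fitted curve at half-maximal effect; plate controls were vehicle for no effect and reference inhibitor for full effect; nearly all actives have a fitted effect of over 55% in size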
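Biochemical qHTS of compounds, final roughly 60 µM downward over six points, against 10 nM purified firefly luciferase using Km concentrations of substrates (10 uM D-luciferin, 10 uM ATP) in Tris acetate pH 7.5 buffer; luminescence output.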
The depositor's hits bear a star; ? = inconclusive; . = no result given; & = joins results of further samples; [ ] = dose if it differs, or a comment. Unless noted, calls follow the shape of the dose curve; as a rule, active = well fitted curve in the direction sought with a large enough effect; inconclusive = small, poorly fitted or top-dose-only effect, or another doubt; inactive = no such curve, though single readings can be large; an effect the other way counts as inactive or inconclusive. Not all compounds are listed (hit frequency here may not be typical).

item	molecule	PKM2 activator	NPC1 promoter act	MBNL1 CUG block	Menin-MLL TR inh	KCNH2 3.1 block
1	CCn1c2ccccc2c2cc(CNCc3ccc(OC)cc3OC)ccc21	3%	-13%	-6%	?	-46
2	CC1CN(CCOc2ccccc2-c2ccccc2)CC(C)O1 (stereo not given)	19%	1%	-3%	-7%	-6
3	CCCCCCCn1c2c(c(=N)c3ccccc31)CCC2	-5%	-40%[inhibitor]	-2%	?	2
4	Cc1ccc2c(c1)N(C)/C(=C/c1cccc[n+]1C)S2	.	-43%[inhibitor]	?	10%	12
5	CC(=O)Nc1ccccc1C	.	-1%	.	.	3
6	CCOC(=O)N1CCC(N2CCN(S(=O)(=O)c3ccc(Cl)cc3)CC2)CC1	3%	1%	-11%	0%	32
7	COc1ccc2nccc(/C=C/c3ccnc4ccc(OC)cc34)c2c1	5%	0%	-7%	.	-14
8	C=CCc1cc(C)ccc1OCCCn1ccnc1	-2%[11.5 µM]	-7%	0%	-27%	-4

item	Mito fusion yeast	Rab9 prom act	ELG1 repair inh	FLuc modulator
1	-24%	-33%[inhibitor]	-27%	1%
2	?	2%	-12%	-2%
3	-17%	-46%[inhibitor]	4.1µM*	0%
4	-7%	-47%[inhibitor]	?	-9%
5	-6%	-3%	?	-1%
6	-1%	-5%	-29%	2%
7	1%	-6%	-14%	5%
8	-7%	-10%	0%	-3%

(next part)
item	molecule	PKM2 activator	NPC1 promoter act	MBNL1 CUG block	Menin-MLL TR inh	KCNH2 3.1 block
9	CCn1c(/C=C/Nc2ccccc2)[n+](CC)c2cc(Cl)c(Cl)cc21	-3%	-14%	.	?	-98*
10	Nc1ccc(S(=O)(=O)Nc2nccs2)cc1	.	.	.	-1%	12
11	C=CCc1cc(Cl)ccc1OCCCn1ccnc1	-16%[11.5 µM]	4%	-3%	?	9
12	O=C1CCC(N2C(=O)c3ccccc3C2=O)C(=O)N1 (stereo not given)	-5%	-1%[46.1 µM]	10%	4%&7%&0%&9%&11%	14
13	COc1ccc(OC)c(/C(C)=N/Nc2ccc(C(=O)O)cc2)c1	1%	3%	13%	0%	.
14	Cc1ccc(OCCCCn2ccnc2C)c(C)c1	4%	-5%	-9%	-4%	-6
15	COC(=O)Nc1nc2ccc(C(=O)c3cccs3)cc2[nH]1	.	?	.	6%	-7
16	CC1CC(C)CN(CC(=O)NC(c2ccccc2)c2ccccc2)C1 (stereo not given)	1%	-8%	-4%	?	-26

item	Mito fusion yeast	Rab9 prom act	ELG1 repair inh	FLuc modulator
9	-8%	-31%[inhibitor]	?	0%
10	.	.	.	.
11	-1%	-3%	-3%	1%
12	6%&22%	-17%[46.1 µM]	7%	5%
13	-6%	14%	?	-2%
14	2%	-7%	12µM*	-5%
15	-3%	-8%[46.1 µM]	.	.
16	7%	1%	4%	-3%

The list continues.
item	molecule	PKM2 activator	NPC1 promoter act	MBNL1 CUG block	Menin-MLL TR inh	KCNH2 3.1 block
17	c1ccc(OCCOCCN2CCN(C(c3ccccc3)c3ccccc3)CC2)cc1	-11%	0%	-20%	-4%	-86*
18	COc1ccc2c(c1)N(C)/C(=C/c1cccc[n+]1C)S2	.	-41%[inhibitor]	?	-10%	6
19	Cc1cc(N2CCCCCC2)nc2ccccc12	5%	1%	-6%	-5%	-9
20	CCOc1cc(CNCc2cc(OC)cc(OC)c2)ccc1OC	3%	-9%	-1%	-3%	6
21	COc1ccc(CNc2ncc(-c3ccc(F)cc3)n2C)c2ccccc12	?	-1%	-2%	?	-12
22	CCN(CC)CCOC(=O)[C@@H](Cc1cccc2ccccc12)C[C@@H]1CCCO1	.	.	.	-22%[24.8 µM]	.
23	COc1ccc(CN2CCN(S(=O)(=O)c3ccc(NC(C)=O)cc3)CC2)cc1OC	26%	-14%	-20%	-2%	-4
24	O=[N+]([O-])c1ccc(S(=O)(=O)N(CCCN2CCOCC2)Cc2cccs2)cc1	6%	-3%	?	-2%	-5

item	Mito fusion yeast	Rab9 prom act	ELG1 repair inh	FLuc modulator
17	7%	-4%	-18%	1%
18	31%	-51%[inhibitor]	?	-2%
19	1%	-2%	-2%	?
20	-4%	-17%	0%	3%
21	-8%	-3%	-14%	?
22	.	.	.	.
23	-5%	2%	-23%	-2%
24	-4%	-6%	-3%	-2%

(continued)
item	molecule	PKM2 activator	NPC1 promoter act	MBNL1 CUG block	Menin-MLL TR inh	KCNH2 3.1 block
25	CC1(Cn2ccnn2)[C@H](C(=O)O)N2C(=O)C[C@H]2S1(=O)=O (stereo not given in full)	.	.	.	-24%	.
26	COc1ccccc1CNc1ncc(-c2ccc(F)cc2)n1C	-1%	3%	-10%	-27%	-20
27	C[N+](C)(C)CCOC(=O)CCC(=O)OCC[N+](C)(C)C	.	-1%[46.1 µM]	.	-2%	5
28	CCCN(CCC)C1=CC(=[N+]2CCCC2)CC(C)(C)C1	-3%	-32%[inhibitor]	-2%	1%	-9
29	c1ccc(COc2ccc(OCCN3CCCCC3)cc2)cc1	6%	11%	.	-29%	9
30	COc1ccc(OC)c(CNc2ncc(-c3ccc(F)cc3)n2C)c1	-5%	-3%	-7%	-21%	-26
31	COc1ccc(-c2coc3cc(O)ccc3c2=O)cc1	.	.	.	4%[24.8 µM]	19
32	COc1ccc(-c2csc(N(CCCN(C)C)C(=O)c3ccc(Br)cc3)n2)cc1	-2%	0%	-2%	-5%	-24

item	Mito fusion yeast	Rab9 prom act	ELG1 repair inh	FLuc modulator
25	.	.	.	.
26	-3%	1%	1%	-13%
27	6%	-5%[46.1 µM]	.	.
28	6%	-39%[inhibitor]	?	1%
29	-10%	3%	?	?
30	-6%	0%	3%	-11%
31	.	.	.	.
32	-11%	0%	9%	?

3 compounds from above, limited to KCNH2 3.1 block and ELG1 repair inh.
no. | molecule | KCNH2 3.1 block | ELG1 repair inh
16 | CC1CC(C)CN(CC(=O)NC(c2ccccc2)c2ccccc2)C1 (stereo not given) | -26 | 4%
17 | c1ccc(OCCOCCN2CCN(C(c3ccccc3)c3ccccc3)CC2)cc1 | -86* | -18%
18 | COc1ccc2c(c1)N(C)/C(=C/c1cccc[n+]1C)S2 | 6 | ?

Remaining list, next part.
item	molecule	PKM2 activator	NPC1 promoter act	MBNL1 CUG block	Menin-MLL TR inh	KCNH2 3.1 block
33	C#C[C@]1(O)CC[C@H]2[C@H]3CCC4=Cc5oncc5C[C@]4(C)[C@@H]3CC[C@]21C	.	.	.	9%[24.8 µM]	.
34	Fc1ccc([C@H]2CCNC[C@H]2COc2ccc3c(c2)OCO3)cc1	.	.	.	0%[24.8 µM]	.
35	COc1cc(OC)cc(C(=O)N2CCN(C3CCN(Cc4ccccc4)CC3)CC2)c1	2%	2%	-3%	-18%	-2
36	CC1CCCCN1CC(=O)Nc1ccc(N2CCCCCC2)cc1 (stereo not given)	10%	-3%	-13%	?	?
37	O=c1ccc2ccc(O)cc2o1	.	.	.	1%	-2
38	O=C(CNCCC1=CCCCC1)Nc1ccccc1N1CCCCCC1	1%	1%	-4%	.	0
39	COc1ccc(NC(=O)CN2CCN(Cc3ccc4c(c3)OCO4)CC2)cc1OC	-3%	0%	-5%	.	-12
40	CN1CCN(c2c(F)cc3c(=O)c(C(=O)O)cn4c3c2OCN4C)CC1	5%	1%	-16%	4%	-1

item	Mito fusion yeast	Rab9 prom act	ELG1 repair inh	FLuc modulator
33	.	.	.	.
34	.	.	.	.
35	-10%	-5%	0%	6%
36	9%	-2%	7%	2%
37	.	.	.	.
38	-9%	-4%	?	-2%
39	12%	-5%	?	5%
40	3%	1%	0%	4%

Continuation.
item	molecule	PKM2 activator	NPC1 promoter act	MBNL1 CUG block	Menin-MLL TR inh	KCNH2 3.1 block
41	CC(C)NCCCOc1ccc(Cl)cc1Br	7%	-1%	-8%	?	-35
42	CCS(=O)(=O)c1ncc(Cl)c(C(=O)Nc2ccc(S(=O)(=O)N3CCCC(C)C3)cc2)n1 (stereo not given)	?	-48%[inhibitor]	73%[activator]	?	-15
43	O=c1cc(-c2ccc(O)cc2)oc2cc(O)cc(O)c12	.	?	.	36%[activator]	7
44	Cc1cc(Br)cc(C)c1OCCCCN(C)C	5%	-2%	-8%	?	-4
45	Cc1c(NC(=O)c2c(NC(=O)CNC3CC3)sc3c2CCCC3)c(=O)n(-c2ccccc2)n1C	7%	-5%	?	1%	2
46	Cn1c(-[n+]2c(-c3ccccc3)cc(-c3ccccc3)cc2-c2ccccc2)nc2cc([N+](=O)[O-])ccc21	20%	-3%	?	3%	1
47	COc1ccc(CCNC(=O)CNCC2CCCO2)cc1OC (stereo not given)	-8%	15%	-14%	-3%	3
48	CCCN1CCCc2cc(CN)ccc21	7%	-1%	?	?	2
49	CC[n+]1c(/C=C/C=C/N(C(C)=O)c2ccccc2)sc2cc(OC)ccc21	3%	-21%	.	?	-20

item	Mito fusion yeast	Rab9 prom act	ELG1 repair inh	FLuc modulator
41	-8%	-5%	?	3%
42	-16%	-49%[inhibitor]	?	-11%
43	?	20%[46.1 µM]	.	.
44	-7%	2%	16%	1%
45	-8%	10%	-10%	4%
46	9%	0%	?	-5%
47	-5%	26%	?	-10%
48	-5%	-17%	?	-13%
49	-2%	-18%	-10%	2%
